Source: PubChem BioAssay (Broad Institute)
Tgondii IFNg – T. gondii growth inhibition under IFN-gamma. 69,000 compounds, 3.8% hits. Toxoplasma gondii growth in IFN-gamma-treated host cells; active compounds read low; reference of the scale not given here. activity change, negative = inhibition, %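 (about 20 µM by stock and volumes)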;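 active = below -70%; inconclusive = fit judged invalid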;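 also: host cells are HeLa cells infected with Toxoplasma gondii; parasite growth read as luciferase light; one replicate is shown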
Starred values were filed as active, the others as inactive; i = inactive; ? = inconclusive.

SMILES	Tgondii IFNg
CC1=CC[C@@H]2CN(C(=O)c3ccn4nnnc4c3)C[C@@H]2C1	4
Cc1ccsc1S(=O)(=O)N1CC[C@@H](c2ccc3c(c2)OCO3)[C@H](O)C1	-11
COc1cccc(CC(=O)N2CCC3(CC2)NC(=O)c2cc(F)ccc2N3C)c1	35
O=C(O)CC(O)(CC(=O)[O][Bi]1[O]C(=O)CC(O)(CC(=O)O)C(=O)[O]1)C(=O)O (stereo unspecified)	-39
Cc1ccc2c(c1)NC1(CCN(C(=O)Nc3cccc(Br)c3)CC1)c1cccn1-2	-15
O=C(O[C@@H]1Cc2c(O)cc(O)cc2O[C@@H]1c1ccc(O)c(O)c1)c1cc(O)c(O)c(O)c1	-52
O=C(c1cc(-c2ccccn2)nc2ccccc12)N(Cc1ccccn1)CC1CCCO1 (stereo unspecified)	14
Cc1ccc(C(C)NCC(=O)Nc2ccc(Cl)c(C)c2)cn1 (stereo unspecified)	?
Cc1cc(NC(=O)CCC2CCCC2)n(-c2ncnc3c2cnn3-c2cccc(Cl)c2)n1	-24
Cc1nc2c(c(N3CCC4(CC3)Nc3ccccc3NC4=O)n1)CNC2	62
CO[C@@H]1CN(C)C(=O)c2ccc(NS(=O)(=O)c3ccc(C)cc3)cc2OC[C@H](C)N(C)C[C@H]1C	47
O=C(O)CCc1ccc(-c2cccs2)n1NC(=O)c1ccc(O)cc1	-2
Cn1cc(S(=O)(=O)NC(CCN2CCOCC2)c2ccccc2)c(=O)n(C)c1=O (stereo unspecified)	25
COc1ccc(CN2CC3(CCC2=O)CCN(CC2CC2)CC3)cc1	28
CCOC(=O)c1nc(NCc2ccc3c(c2)OCO3)c2ccccc2n1	9
C=CCn1cc(-c2c(-c3ccccc3)ncn2Cc2cnc(C)cn2)c(C)n1	-10
CN1CCN2CCN(S(=O)(=O)c3ccc4c(c3)OCCN4C)CC2C1 (stereo unspecified)	48
O=C(c1cccc2ccnn12)N1CCCC1Cn1cccn1 (stereo unspecified)	1
CN(C)C(=O)c1ccc(-c2ccccc2[C@H]2[C@@H](C#N)N(C(=O)C3CC3)[C@@H]2CO)cc1	20
CCN1C(=O)CCc2cc(NC(=O)c3cccc(C#N)c3)ccc21	-9
C=Cn1cc(CN(C)Cc2nc3ccccc3n2C)cn1	-8
N=c1ccn(CC(=O)NC(N)=O)c2ccccc12	-5
COc1cccc(NC(=O)NCC(c2cccnc2)c2c[nH]c3ccccc23)c1 (stereo unspecified)	305
Cc1oc(C2CCN(S(=O)(=O)CCc3ccccc3)CC2)nc1C(=O)N(C)C	54
CO[C@@H]1CN(C)C(=O)c2ccc(NC(C)=O)cc2OC[C@H](C)N(C(=O)c2cnccn2)C[C@@H]1C	21

Later entries
SMILES	Tgondii IFNg
Cc1ccc(NC(=O)c2ccccc2)c(NC(=O)c2ccc(CN(C)C)o2)c1	8
CCc1ccccc1NC(=O)C(=O)NCCc1csc(-c2ccc(F)cc2)n1	-22
CCc1ccccc1S(=O)(=O)N1CCc2nc(-c3cccc(OC)c3)sc2C1	-91*
CCCN(CC)C(=O)c1ccc2onc(-c3coc(C4CC4)n3)c2c1	-11
CCCNC(=O)N1CC2(C1)CN(C(=O)CN1CCOCC1)[C@H](CO)c1[nH]c3cc(OC)ccc3c12	6
CSc1cccc(NC(=O)N2CCC3(CC2)Nc2cc(F)ccc2-n2cccc23)c1	i
C[C@@H]1CCCCO[C@H](CN(C)Cc2ccc3c(c2)OCO3)[C@@H](C)CN([C@H](C)CO)C(=O)c2cc(NS(=O)(=O)c3cn(C)cn3)ccc2O1	132
CN1C(=O)c2cc(NC(=O)c3ccc(C(F)(F)F)cc3)ccc2OC[C@@H]2O[C@H](CC(=O)NCc3ccc4c(c3)OCO4)CC[C@H]21	-28
O=C(Nc1ccccc1)c1cc2n(n1)CCN(C(=O)CCN1CCCCO1)C2	4
COc1cccc(-c2ccc3c(c2)[C@H]2[C@H](CCN2C(=O)Cc2ccncc2)[C@H](CO)N3C)c1	29
CCc1nccn1CCC(=O)N1CCc2onc(-c3ccccc3F)c2C1	-11
COc1ccc(-c2nc(CCNC(=O)c3ccccc3)cs2)cc1OC	i
Cc1cccc(NC(=O)Nc2ccc(C)c(Cl)c2)n1	-31
CCNC(=O)C1CCN(Cc2cccc(C(=O)Nc3c(C)noc3C)c2)C1 (stereo unspecified)	2
O=C(Cn1c(=O)cc(C(=O)N2CCc3ccccc3C2)c2ccccc21)Nc1cccc(F)c1	6
O=C(c1ccccc1)N1[C@H](CO)[C@@H](c2ccccc2)C12CN(Cc1nccs1)C2	34
CC(C)(C)c1cc(-c2cc(C(C)(C)C)c(O)c(C(C)(C)C)c2)cc(C(C)(C)C)c1O	14
O=C(CC1C=CS(=O)(=O)C1)N1C[C@@H]2C3CCC(CC3)[C@@H]2C1 (stereo partly specified)	4
Cc1ccc(NC(=O)c2cncc(NS(=O)(=O)c3ccc(Br)cc3)c2)cc1C	-20
COc1ccc(-c2nc(C)c(CCNS(=O)(=O)c3ccc4c(c3)CCCC4)s2)cc1	107
C1CCN(Cc2nnn3c2CN(CC2CC2)CCC3)C1	18
CCc1ccc(Nc2nc(C(=O)NCCC3=CCCCC3)nc3ccccc23)cc1	-41
O=C1N(c2ccccc2)CC12CCN(S(=O)(=O)c1cccc(F)c1)CC2	13
Cc1oc(C2CCN(S(=O)(=O)CCc3ccccc3)CC2)nc1C(=O)N1CCCCC1	-3
CN1C(=O)c2cc(NS(=O)(=O)c3ccccc3F)ccc2OC[C@H]2O[C@H](CC(=O)NC3Cc4ccccc4C3)CC[C@@H]21	5

New compounds follow.
SMILES	Tgondii IFNg
COc1ccccc1CN1[C@@H](CO)[C@@H]2c3ccccc3N(C(=O)C3CCOCC3)C[C@@H]21	-5
CC1(C)CSC(=NC2CCCCC2)N1	-21
Cc1ccc2[nH]c(C(=O)N3CCN(c4ccccn4)CC3)c(NC(=O)c3ccc(F)cc3)c2c1	2
Cc1ccc(Cl)cc1NC(=O)c1nnn(Cc2nc(-c3ccccc3)oc2C)c1C	-45
COCCn1c2c(ccc1=O)CC(NS(C)(=O)=O)CC2 (stereo unspecified)	8
CCOc1ccccc1-c1nc(Cn2ccn3nc(-c4ccc5c(c4)OCO5)cc3c2=O)c(C)o1	28
Cc1cc2nc(CCNC(=O)CN3C(=O)NC(C)(c4ccccc4)C3=O)[nH]c2cc1C (stereo unspecified)	7
Cc1cccc(N2CCc3c(COCCN(C)C)cncc3C2)n1	1
O=C(NCCc1csc(-c2cccc(F)c2)n1)c1ccc(Br)cc1	-50
Cc1cccc(CN2C[C@@H]3COC[C@]3(CC(=O)N3CCOCC3)C2)c1	10
CCN1C(=O)CCc2cc(NC(=O)Cc3cccs3)ccc21	3
C[C@@H]1CN([C@@H](C)CO)C(=O)c2ccccc2-c2ccccc2CO[C@H]1CN(C)C(=O)[C@@H]1CCCN1C	11
Cc1nc(CCNC(=O)[C@H]2CCCN2C(=O)c2cccc(Br)c2)cs1	12
CCOC(=O)C1CCN(S(=O)(=O)c2ccc3oc4ccccc4c3c2)CC1	10
O=C(NC[C@@H]1CCC[C@]2(CCNC2)O1)c1ccccc1	-43
c1ccc(SCc2nnc3sc(-c4ccccn4)nn23)cc1	403
Cc1c(C(=O)NC2CCS(=O)(=O)C2)oc2ccccc12 (stereo unspecified)	18
CCc1ccc(-c2nccn2Cc2cccnc2)nc1	3
CCS(=O)(=O)N1CCC(C(=O)N2CCN(c3cccc(C(F)(F)F)c3)CC2)CC1	-68
Cn1nccc1C(=O)N1CCc2c([nH]c3ccccc23)C1c1ccc(F)cc1 (stereo unspecified)	427
O=C(c1nc2ccccc2s1)C1CCN(C(=O)CCn2cnnn2)CC1	9
O=C(Cc1ccncc1)N1CC[C@@H]2[C@H]1c1cc(Br)ccc1N[C@@H]2CO	3
Cc1ccc(-c2cnc(NC(=O)c3noc(C)c3Cn3cccn3)n2C)cc1C	210
O=C(O)CCC(=O)NC1Cc2ccccc2C1	-41
Cn1cccc1C(=O)N1CCCC2(COCCN(c3cccc(F)c3)C2)C1 (stereo unspecified)	-32

The list continues.
SMILES	Tgondii IFNg
Cc1cccn2cc(-c3cccc(NC(=O)c4cc5ccccc5oc4=O)c3)nc12	63
O=C(NC[C@@H]1[C@@H](c2ccccc2)[C@H](CO)N1C(=O)Cc1ccncc1)C1CCC1	-2
CCCCC[C@@H](O)[C@H]1C(=O)O[C@H](C)[C@@H](O)/C=C/C=C/C=C/C=C/C=C(\C)[C@@H](O)C[C@H](O)C[C@H](O)C[C@H](O)C[C@H](O)C[C@H](O)C[C@@H]1O	11
Cc1ccc(-c2noc(-c3nnn(Cc4nc(-c5ccc(C)cc5)oc4C)c3C)n2)cc1	-20
O=C(N[C@@H]1C=C[C@@H](CC(=O)N2CCN(c3ccccc3)CC2)O[C@@H]1CO)c1ccccc1	-3
CCCC(CC(=O)O)(C(=O)O)c1ccccc1 (stereo unspecified)	-60
Cc1nnc(C2CCN(C(=O)C(C)(C)C)CC2)o1	20
CCN(CC)c1ncccc1CNC(=O)[C@H]1[C@@H]2C=C[C@@]3(CN(C)C(=O)[C@@H]13)O2	-4
CC(C)c1cc(C(=O)NCc2ccccc2CN2CCCC2=O)n(C)n1	-56
Cc1cccc(C)c1OCCn1ccnc1-c1cccnc1	-3
CCOc1ccc2nc(NC(=O)NC3CCCCC3)sc2c1	-20
CCCN1C(=O)CCc2cc(NC(=O)Cc3ccc(OC)cc3Cl)ccc21	19
C[C@H](CO)N1C[C@H](C)[C@@H](CN(C)C(=O)c2ccccc2)Oc2cc(-c3cccc(C#N)c3)ccc2S1(=O)=O	-63
COc1ccccc1NC(=O)N1CCc2nc(-c3ccc(OC)c(OC)c3)sc2C1	-20
CCc1cn[nH]c1C1CCCN(C(=O)c2cnc(-c3cccnc3)nc2)C1 (stereo unspecified)	0
CN(CCCc1cnn(C)c1)C(=O)c1ccc2c(c1)OCO2	-1
CN(CCc1ccccn1)Cc1cnc2c(-c3ccccc3)cnn2c1	20
Cc1ccccc1C(=O)NCCc1csc(-c2cccc(F)c2)n1	36
CC(C(=O)N1CCOCC1)N1CCC(N2CCCCC2)CC1 (stereo unspecified)	-26
c1cnc(-c2cc(NC3CCNCC3)nc3[nH]ccc23)nc1	?
Cc1ccc(N2CCC3(CC2)CN(CCO)Cc2ccccc23)nn1	-17
COc1cc(Cl)c(C)cc1NC(=O)c1ccccc1C1CCNC1 (stereo unspecified)	-14
c1ccc(-c2nnc(-c3nc(NCCN4CCOCC4)c4ccccc4n3)o2)cc1	-48
COCCN1CCOCC2(CCCN(C(=O)c3nn(C)c4ccccc34)C2)C1 (stereo unspecified)	11
CN(C)c1ncnc2c1CCN(C(=O)c1ccnnc1)CC2	-1

3 structures from above, arranged by SMILES length, high to low:
SMILES	Tgondii IFNg
CN(CCCc1cnn(C)c1)C(=O)c1ccc2c(c1)OCO2	-1
Cc1nnc(C2CCN(C(=O)C(C)(C)C)CC2)o1	20
CCCC(CC(=O)O)(C(=O)O)c1ccccc1 (stereo unspecified)	-60

Next section
SMILES	Tgondii IFNg
CCOc1ccc(C(=O)Nc2ccc3oc(=O)ccc3c2)cc1	63
CC(=O)N1CC[C@@H](OCC(=O)N2CCCC2)[C@@H](Cc2ccccc2)C1	-15
CCN(Cc1cccc(OC)c1)C(=O)c1c(O)cccc1O	0
COc1ccc(S(=O)(=O)NCCc2sc(-c3ccc(F)cc3)nc2C)cc1OC	28
O=C(c1cccc2ccccc12)N1CCN(Cc2cccnc2)CC1	4
CC1c2ccsc2CCN1Cc1ccc(Oc2ncccn2)cc1 (stereo unspecified)	9
Cc1cc(C)cc(NC(=O)CN2C(=O)CCc3cc(S(=O)(=O)N4CCCCC4C)ccc32)c1 (stereo unspecified)	-52
COCCCN(Cc1ccccn1)CC1(c2ccc(Cl)cc2)CCCC1	-20
CCn1ccc(CN(C)C(=O)CSc2nnc(N)s2)n1	-5
COCC(=O)NCc1cc(=O)n2c(n1)CN(c1ncc(C)cn1)CCC2	-26
Cc1cccc2c(CCNS(=O)(=O)NCc3ccccc3)c[nH]c12	4
Cc1ccc(SCCNc2nccc(-c3cn(C)nc3C)n2)cc1	-27
CC(C(=O)NC1CCN(Cc2cc(-c3ccccc3F)nn2C)CC1)n1ccnc1 (stereo unspecified)	17
O=c1oc2ccccc2cc1-c1csc(-c2ccccc2Cl)n1	6
O=C(CN1CCOC(C(F)(F)F)C1)N1CCCCC1 (stereo unspecified)	-10
CCCCN(Cc1ccco1)C(=O)C(C)c1ccccc1 (stereo unspecified)	-29
CCCNC(=O)Cn1nc(C(F)(F)F)cc1C	6

Not a retest: 16 of the compounds above.
SMILES	Tgondii IFNg
O=C(CC1C=CS(=O)(=O)C1)N1C[C@@H]2C3CCC(CC3)[C@@H]2C1 (stereo partly specified)	4
Cc1ccc(NC(=O)c2cncc(NS(=O)(=O)c3ccc(Br)cc3)c2)cc1C	-20
COc1ccc(-c2nc(C)c(CCNS(=O)(=O)c3ccc4c(c3)CCCC4)s2)cc1	107
C1CCN(Cc2nnn3c2CN(CC2CC2)CCC3)C1	18
CCc1ccc(Nc2nc(C(=O)NCCC3=CCCCC3)nc3ccccc23)cc1	-41
O=C1N(c2ccccc2)CC12CCN(S(=O)(=O)c1cccc(F)c1)CC2	13
Cc1oc(C2CCN(S(=O)(=O)CCc3ccccc3)CC2)nc1C(=O)N1CCCCC1	-3
CN1C(=O)c2cc(NS(=O)(=O)c3ccccc3F)ccc2OC[C@H]2O[C@H](CC(=O)NC3Cc4ccccc4C3)CC[C@@H]21	5
COc1ccccc1CN1[C@@H](CO)[C@@H]2c3ccccc3N(C(=O)C3CCOCC3)C[C@@H]21	-5
CC1(C)CSC(=NC2CCCCC2)N1	-21
Cc1ccc2[nH]c(C(=O)N3CCN(c4ccccn4)CC3)c(NC(=O)c3ccc(F)cc3)c2c1	2
Cc1ccc(Cl)cc1NC(=O)c1nnn(Cc2nc(-c3ccccc3)oc2C)c1C	-45
COCCn1c2c(ccc1=O)CC(NS(C)(=O)=O)CC2 (stereo unspecified)	8
CCOc1ccccc1-c1nc(Cn2ccn3nc(-c4ccc5c(c4)OCO5)cc3c2=O)c(C)o1	28
Cc1cc2nc(CCNC(=O)CN3C(=O)NC(C)(c4ccccc4)C3=O)[nH]c2cc1C (stereo unspecified)	7
Cc1cccc(N2CCc3c(COCCN(C)C)cncc3C2)n1	1

Not all compounds are listed; the hit share may differ from the screen's.
